Beta2AR agonist = activates human beta-2 adrenergic receptor causing internalization | P07550 | Am2.2-beta2AR cells, FAP receptor internalization, flow cytometry; reference of the scale not given here | response, % (concentration not given with the values) | 340,000 compounds, 0.43% hits | AID 504454;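 active = response above a set limit, near 3 SD of response in nonfluorescent compounds, cut at about 42% in these data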;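 note: stock transfer was 100 nL into about 11 µL; a reference agonist was the positive control; negative values mostly stem from fluorescent compounds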
FGF22 binding = binders of recombinant human FGF22 by thermal shift | 340,000 compounds, 1.5% hits | AID 651658 | SYPRO orange fluorescence; percent of sucrose octasulfate shift, DMSO zero | calls only at 9.99 µM;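 active = melting point raised past a set limit in the mean and every replicate; three in four hits are not shown here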
Target sequence (Q9HCT0 whole entry, looked up): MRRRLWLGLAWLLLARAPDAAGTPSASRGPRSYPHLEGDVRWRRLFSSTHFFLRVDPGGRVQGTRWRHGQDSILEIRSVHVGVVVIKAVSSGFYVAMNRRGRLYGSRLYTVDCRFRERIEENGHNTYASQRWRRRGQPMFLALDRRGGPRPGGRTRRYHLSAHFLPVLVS
rRNA inh HTS = selective bacterial rRNA inhibition in E. coli; E. coli WT GFP vs humanized-ribosome RFP mutants, fluorescence, 24 h; active compounds read low; DMSO median 0, no signal -100; AID 720706; 350,000 compounds, 1.6% hits; GFP signal change (wild-type ribosome), % (test concentration not listed);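 active = significant combined selectivity score with lowered wild-type GFP, culture density cut under 30%, mutant RFP and density less affected; inactive = any of these conditions unmet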; note: one replicate is shown; some compounds called inactive have numbers as strong as hits
ALR inh = human ALR oxidase inhibition via reduced H2O2; purified ALR, DTT oxidation, H2O2 HRP-luminol luminescence; 290,000 compounds, 3.8% hits; inhibition, % (no concentration beside the values); P55789;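 active = mean and each replicate at 75% or more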;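 note: stock transfer was 7.5 nL into about 7.5 µL; 0% = neutral wells and 100% = wells with inactivated enzyme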
UCH37 inh = inhibitors of human deubiquitinating enzyme UCH37; Q9Y5K5; inhibition, % (test concentration not listed); purified proteasome/UCH37, Ub-AMC cleavage fluorescence; 330,000 compounds, 0.33% hits;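 active = mean of two replicates above 20%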;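 note: 0% = compound-free wells with enzyme and 100% = wells lacking proteasome; stock transfer was 100 nL into about 20 µL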
Target sequence (Q9Y5K5 whole entry, looked up): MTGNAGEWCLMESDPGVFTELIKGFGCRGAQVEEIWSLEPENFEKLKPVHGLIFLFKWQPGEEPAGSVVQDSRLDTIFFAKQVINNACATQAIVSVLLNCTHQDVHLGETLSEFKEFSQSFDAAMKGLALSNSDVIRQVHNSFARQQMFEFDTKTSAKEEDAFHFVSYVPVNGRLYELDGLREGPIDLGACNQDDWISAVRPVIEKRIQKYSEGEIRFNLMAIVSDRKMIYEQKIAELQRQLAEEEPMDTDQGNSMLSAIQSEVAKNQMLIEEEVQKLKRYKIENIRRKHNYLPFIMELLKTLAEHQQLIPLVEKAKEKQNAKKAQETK
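Schedule: 30 min plus 25 min, room temperature / Material: human UCH37 within purified proteasomes / Technique: AMC fluorescence intensity at 355/460 nm / Buffer or medium: pH 7.4 Tris-HCl (50 mM) with ovalbumin, ATP-MgCl2, DTT / Controls: wells without proteasome as full block, compound-free enzyme plus substrate as uninhibited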
Ecoli growth = inhibitors of Escherichia coli growth; OD600, 23 h; active compounds read low; OD600 absorbance (test concentration not listed); 330,000 compounds, 0.21% hits; AID 1053175;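 active = OD600 absorbance below the run mean of sample wells minus 3.6 SD, in any replicate, cut at about 0.56 in these data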;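 note: stock transfer was 300 nL into about 60 µL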
HNF4A DNA FP = change in binding of human HNF4 alpha to DNA; 360,000 compounds, 0.3% hits; activity change, % at 10 µM; AID 1224865; P41235; HNF4a-FITC DNA binding, fluorescence polarization, 1 h; in the data active = activity change above about 30%, passing the limit was not always enough;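 note: controls were the assay level and a saturating level of protein; the project sought stronger binding though the title names inhibitors; some compounds called inactive have numbers as strong as hits; positive values seem to mean higher polarization but the record does not say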
Target sequence (P41235 whole entry, looked up): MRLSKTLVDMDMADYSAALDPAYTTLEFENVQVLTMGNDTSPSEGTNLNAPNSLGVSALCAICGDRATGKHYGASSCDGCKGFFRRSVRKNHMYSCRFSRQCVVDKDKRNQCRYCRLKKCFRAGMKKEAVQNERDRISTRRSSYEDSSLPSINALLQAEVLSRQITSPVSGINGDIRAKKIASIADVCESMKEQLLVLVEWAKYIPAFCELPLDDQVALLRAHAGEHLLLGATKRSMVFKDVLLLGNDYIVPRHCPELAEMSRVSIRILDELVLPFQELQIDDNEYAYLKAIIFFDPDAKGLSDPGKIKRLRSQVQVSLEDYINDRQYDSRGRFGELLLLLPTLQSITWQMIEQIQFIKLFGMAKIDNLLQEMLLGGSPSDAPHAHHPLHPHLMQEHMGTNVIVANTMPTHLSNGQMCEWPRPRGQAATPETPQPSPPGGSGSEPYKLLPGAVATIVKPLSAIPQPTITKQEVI
rRNA inh HTS OD600 = recorded beside rRNA inh HTS, whose call it bears; OD600 change, %; measured here: OD600 growth;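 optical density of the mix in the first replicate; 0 = DMSO median and -100 = no signal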
rRNA inh HTS RFP = second read-out of rRNA inh HTS, no call of its own (marks repeat the call); RFP signal change, %; measured here: RFP humanized mutant strains;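 first replicate; 0 = DMSO median and -100 = no signal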
* = called active by the depositor; i = inactive; nt = not tested or not shown; & = joins results of further samples. Not all compounds are listed, so the mix of outcomes need not match the whole.

Below each SMILES: Beta2AR agonist	FGF22 binding	rRNA inh HTS	rRNA inh HTS OD600	rRNA inh HTS RFP	ALR inh	UCH37 inh	Ecoli growth	HNF4A DNA FP
[1] C[C@H](CO)N1C[C@H](C)[C@H](CN(C)C(=O)Nc2ccc(N3CCN(C)CC3)cc2)OCc2cnnn2CCCC1=O
→ nt	i	9&-1	12&10	-2.5&-0.4	nt	nt	nt	-10
[2] CCOC(=O)c1sc2nc3c(cc2c1N)COC(C)(CC)C3 (stereo not drawn)
→ 5	nt	nt	nt	nt	0	-55	0.74	-0.2
[3] Cn1ccnc1SCC(=O)NC1CCCC1
→ 0	i	10	12	0.8	nt	4.2	0.7	3.9
[4] Cc1nc2ccc(S(=O)(=O)CCC(=O)NCc3ccc(Cl)cc3)cc2s1
→ nt	i	-2	4	1.3	nt	nt	nt	4.9
[5] COc1cccc2c1Oc1cc([N+](=O)[O-])cc(N(C)C(C)=O)c1C=C2
→ -3	i	-17*	1.7*	1.2*	-18	6.4	0.66	-1.5
[6] CC(=O)Nc1ccc(NS(=O)(=O)c2ccc(Cl)c(C(=O)O)c2)cc1
→ 7	i	11	-1	-6.7	-97	0.8	0.66	2.9
[7] O=C(CCCCCCN1C(=O)c2ccccc2C1=O)N1CCC(c2ccccc2)C1 (stereo not drawn)
→ -2	nt	-49	-76	-29	2	2.5	0.69	-1.2
[8] CCOc1ccc(CNC(=O)C2Cc3cc(S(=O)(=O)N4CCCCC4)ccc3N2C(C)=O)cc1 (stereo not drawn)
→ -11	i	1	10	0.7	1	7.8	0.69	-0.4
[9] CCOc1ccc(NC(=O)CN(C)C(=O)c2cc3c(s2)CCCCC3)cc1OCC
→ -13	i	12	5	-0.7	-5	0.3	0.66	-2.7
[10] CCOc1ccccc1N1CCN(C/C=C/c2ccc(N(C)C)cc2)CC1
→ 3	nt	nt	nt	nt	99*	3.8	nt	4.3
[11] CC12CC3(C)CC(C)(C1)CC(C(=O)NC(=S)N1CCOCC1)(C2)C3
→ -1	i	-11	-22	4.1	-5	1.4	0.68	-4.7
[12] CCCn1c(CCc2ccccc2)nnc1SCC(=O)N1CCOCC1
→ 2	nt	nt	nt	nt	11	1.7	0.78	-1.0
[13] Cc1ccc(N2C(=O)C3N=NN(CC(=O)N4N=C(c5ccccc5)CC4c4ccccc4)C3C2=O)cc1 (stereo not drawn)
→ 0	i	5	15	0.2	4	3.4	0.7	-0.9
[14] CCNc1nc(-c2ccc(Cl)cc2)cs1
→ -6	nt	nt	nt	nt	66	-4.7	0.7	-0.3
[15] CC(OC(=O)c1nsc(Cl)c1Cl)C(=O)NCc1ccco1 (stereo not drawn)
→ -4	nt	nt	nt	nt	nt	0.9	0.69	4.2
[16] CN1CCC(NC(=O)c2cccs2)CC1
→ 3	i	-5	3	1.2	-22	3.8	0.79	-0.1
[17] Cc1cccc(N=C2SC(C)CN2C(=O)CN2C(=O)NC3(CCCC3)C2=O)c1 (stereo not drawn)
→ 4	i	5	9	1.5	3	0.9	0.69	-1.6
[18] CC(NC(=O)COC(=O)Cc1ccsc1)C1CC2CCC1C2 (stereo not drawn)
→ 2	nt	nt	nt	nt	-1	4.6	0.65	-1.2
[19] COc1ccc(C(=O)Nc2cc3c(cc2N2CCCCC2)n(C)c(=O)n3C)cc1OC
→ 17	i	-6	2	-1.5	nt	1.5	0.71	-1.4
[20] CCCc1ccc(-c2cc(C(=O)Nc3ccc([N+](=O)[O-])cn3)c3ccccc3n2)cc1
→ 12	i	10	-5	-11	nt	3.5	0.72	1.5

The list goes on:
Below each SMILES: Beta2AR agonist	FGF22 binding	rRNA inh HTS	rRNA inh HTS OD600	rRNA inh HTS RFP	ALR inh	UCH37 inh	Ecoli growth	HNF4A DNA FP
[21] NS(=O)(=O)c1ccc(NC(=O)COC(=O)COc2cccc(C(F)(F)F)c2)cc1
→ 5	i	0	3	7.7	-1	4.5	0.67	2.0
[22] CC(=O)OC1CC(C)N(C(=O)c2ccccc2)c2ccc(C)cc21 (stereo not drawn)
→ -8	nt	-21	-16	-6.2	0	3.2	0.66	4.5
[23] CSc1nc2c(c(=O)[nH]1)C(c1ccncc1)C(C(=O)OC(C)C)=C(C)N2 (stereo not drawn)
→ 11	nt	nt	nt	nt	-14	-1.1	0.69	2.7
[24] O=C(CNS(=O)(=O)c1cccc(F)c1)OCC(=O)N1CCCC1=O
→ -6	i	2	8	-2.4	11	3.0	0.68	-0.9
[25] CC1CCCC(NC(=O)C2CCN(C(=O)Nc3ccccc3)CC2)C1C (stereo not drawn)
→ -3	i	5	7	-4.4	1	0.0	0.68	-1.8
[26] Nc1nonc1-n1nnc(C(=O)N/N=C/c2ccccc2F)c1CN1CCc2ccccc21
→ -4	i	-3	7	20	1	nt	nt	0.8
[27] CC(C)c1nc2ccc(Br)cn2c1NC1CCCC1
→ 1	i	19	18	-0.4	99*	-1.0	0.69	3.1
[28] C/C(=N/NC(=O)CNC(=O)c1ccccn1)c1ccc([N+](=O)[O-])cc1
→ -13	nt	16	16	1.5	5	nt	nt	1.5
[29] CCN(C(=O)CCc1ccccc1)C1CCCCC1
→ -8	i	-5	-7	0.3	-24	2.0	0.69	3.0
[30] Cc1ccn2c(NC3CCCCC3)c(-c3cccc(SC4CCCCC4)c3)nc2c1
→ -3	i	1&10	-1&17	4.6&4.8	-1	nt	nt	11&17
[31] O=C(Nc1cccnc1)c1cc(S(=O)(=O)N2CCOCC2)ccc1Br
→ 3	i	9	6	2.6	-2	0.9	0.71	-0.3
[32] CC(OC(=O)Cc1ccc(Br)cc1)C(=O)NC1CCCC1 (stereo not drawn)
→ -1	i	-7	-23	-3.2	-6	1.2	0.67	0.0
[33] O=C(Cn1cc2c(n1)CCCCC2)NCc1ccccc1
→ 0	i	1	2	-1.5	nt	1.4	0.7	0.8
[34] Cc1ccc(-c2noc(CSc3nnc(-c4cccs4)n3C)n2)cc1
→ -19	nt	3	3	-1.1	-2	1.2	0.74	7.2
[35] COc1ccc(S(=O)(=O)N(C)CC(=O)NCc2ccc3c(c2)OCO3)cc1
→ 2	nt	-4	-7	1.0	nt	1.4	0.69	0.5
[36] O=c1[nH]nc(SCCS(=O)(=O)c2ccc(F)cc2)n1-c1ccccc1
→ 2	i	-1	1	-1.4	-16	0.5	0.68	3.7
[37] CCCCNC(=O)C1CCCN(S(=O)(=O)CC)C1 (stereo not drawn)
→ -4	i	-4	6	1.3	21	0.5	0.67	3.7
[38] CCN(CC)c1ccc(S(=O)(=O)N2CCOCC2)cc1NC(=O)CNCc1ccccc1
→ 5	i	-18	-27	10	-11	nt	nt	1.9
[39] CC(C)CN(C(=O)CCC(=O)OCC(=O)NCCc1ccccc1)c1c(N)n(CC(C)C)c(=O)[nH]c1=O
→ 1	i	5	16	-5.9	-4	nt	nt	-2.3
[40] C[C@H](NC(=O)C1CC(=O)N(c2ccc3c(c2)OCCO3)C1)C(=O)NCc1ccco1 (stereo partly drawn)
→ 8	i	-2	8	-0.1	-4	2.5	0.67	1.8

Further structures follow.
Below each SMILES: Beta2AR agonist	FGF22 binding	rRNA inh HTS	rRNA inh HTS OD600	rRNA inh HTS RFP	ALR inh	UCH37 inh	Ecoli growth	HNF4A DNA FP
[41] COCc1cc(=O)[nH]c2cc(NC(=O)c3cccc(OC)c3)c(C)cc12
→ -2	i	7	26	10	nt	-88	0.68	1.2
[42] CCCC(C)C(=O)OCC(=O)NCc1ccc(OC)c(OC)c1 (stereo not drawn)
→ 2	i	16	5	1.5	-33	1.7	0.71	-3.0
[43] Cc1ccc(OC(=O)c2cccc([N+](=O)[O-])c2)c(-n2nc3ccccc3n2)c1
→ -3	nt	nt	nt	nt	0	4.3	0.69	2.8
[44] Cc1ccc2nc(-c3cc(-c4ccccc4)no3)cn2c1
→ 2	i	6	8	-1.0	6	-2.4	0.63	9.9
[45] Cc1ccc(NC(=O)CSCC(=O)NNC(=O)c2nn(C)c(=O)c3ccccc23)cc1
→ -1	i	0	11	0.4	-7	3.0	0.65	-3.1
[46] Cc1ccccc1C(=O)NC1CCN(CC(=O)Nc2ccccc2)CC1
→ 4	i	0	-2	-9.8	-1	0.0	0.68	-0.4
[47] O=C(O)CN1CCN(c2ncc(C(F)(F)F)cc2Cl)CC1
→ 7	i	14	19	1.0	2	2.1	0.66	-0.3
[48] CC1(C)Cc2nc(NCCCO)c(C#N)cc2CO1
→ -4	nt	nt	nt	nt	nt	-229	0.68	-2.8
[49] Cc1ccc(COn2c(-c3ccc(Cl)cc3)nc3ccc([N+](=O)[O-])cc32)cc1
→ -7	nt	nt	nt	nt	-1	4.1	0.69	0.5
[50] O=C(CS(=O)c1ccc(C(F)(F)F)cc1[N+](=O)[O-])Oc1ccc(Cl)cc1 (stereo not drawn)
→ 12	nt	nt	nt	nt	-4	1.9	0.7	2.4
[51] NC(=O)c1ccccc1NC(=O)Nc1ccccc1Cl
→ 2	i	3	3	-1.3	-6	-2.5	0.67	3.6
[52] COc1ccc2nc(SCC(=O)c3c(N)n(C4CC4)c(=O)[nH]c3=O)[nH]c2c1
→ -3	i	1	1	-0.7	10	2.3	0.66	3.4
[53] COc1cc2c(cc1OC)CN(C(=O)c1ccc(S(=O)(=O)N3CCCC3)cc1)CC2
→ -3	i	-2	-1	-7.2	-23	0.6	0.72	0.1
[54] C#CCOCCOCCOCCNc1nc(N2CCOCC2)nc(N2CCN(C(=O)[C@H](CCC(=O)O)n3cc(C(N)[C@H](C)CC)nn3)CC2)n1 (stereo partly drawn)
→ 1	i	4	10	-3.7	10	-0.8	nt	0.6
[55] CCCN1CCN(C(=O)c2oc3ccccc3c2NC(=O)C2CC2)CC1
→ 1	i	16	12	0.1	0	2.4	0.68	5.2
[56] CC(C)Cc1cc(C(C)(C)C)ccc1OC(=S)N(C)C
→ 3	i	10	9	5.5	-1	0.9	0.69	-1.4
[57] CC[C@]12c3[nH]c4ccc(Cl)cc4c3CCN1C(=O)[C@@H](CC(=O)NCCc1ccccn1)C[C@@H]2C(=O)N1CCN(C(=O)c2ccco2)CC1
→ 0	i	-5	-2	5.0	nt	1.5	0.7	4.5
[58] CCN(CC)C(=O)[C@H]1CC(CC(=O)NCc2cccc(C(F)(F)F)c2)C(=O)N2CCc3c([nH]c4ccc(OC)cc34)[C@]12C (stereo partly drawn)
→ -2	i	3	-16	-2.2	nt	0.7	0.71	1.0
[59] Cc1ccc(Cc2c(C)nc3nc(SCC(=O)NCCCN4CCCCCC4)nn3c2C)cc1
→ nt	i	0	7	21	11	nt	nt	nt

High-throughput results deposited in PubChem by several laboratories.
